NPYLR7 agonist: agonists of mosquito NPYLR7 receptor, primary screen, cell-based, Aedes aegypti, calcium fluorescence, mosquito biting behavior. Aedes aegypti neuropeptide Y-like receptor 7 (NPYLR7). HEK293T NPYLR7/Galpha15, GCaMP6s calcium fluorescence. activation, % at 10 µM. 270,000 tested, 0.15% active. AID 1259423, 2018; in the data active = activation above about 40%;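 note: 0% = vehicle and 100% = reference agonist at the receptor; some compounds past the cut are filed as inactive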
NPYLR7 agonist max-min: also measured in NPYLR7 agonist; calls as there; activation, %; measured here: Max-Min RFU normalised activation; some inactives read as strong as hits;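 span of the calcium signal over five minutes; 0% = vehicle and 100% = native peptide agonist; compound fluorescence can raise it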
The depositor's hits bear a star. Only part of the results is shown (hit frequency here may not be typical).

#1 COc1ccc(N(C)c2nc(-c3ccc(Br)cc3)nc3ccccc23)cc1
#2 COc1ccc(NC(=O)Nc2ccn(CC(N)=O)n2)cc1
#3 OCCC1CN(Cc2cn[nH]c2-c2ccc(F)cc2)CCN1CC1CCCCC1 (stereo unspecified)
#4 COc1ccc(Cn2cnc3c4ccccc4n(CC(=O)Nc4cccc(OC)c4)c3c2=O)cc1
#5 O=C(CN1CCN(c2cc(Oc3ccc(F)cc3Cl)ncn2)CC1)N1CCCC1
#6 Cc1ccc(N=c2scc(C)n2CCO)cc1

assay / compound	1	2	3	4	5	6
NPYLR7 agonist	-3	4	-5	0	14	-5
NPYLR7 agonist max-min	6	3	-9	-2	14	-11

#7 CCC(C)CN(C)C(=O)NCCc1nccn1C(F)F (stereo unspecified)
#8 O=C(NCC1COc2ccccc2O1)c1ccc(Cl)c(NS(=O)(=O)c2ccc(F)cc2)c1 (stereo unspecified)
#9 O=C(Cc1ccc(-n2cnnn2)cc1)NC(c1ccccc1)C1CCC1 (stereo unspecified)
#10 CC1(C(=O)NS(=O)(=O)c2ccc(C#N)cc2)CCN1C(=O)C1(c2ccccc2)CC1 (stereo unspecified)
#11 CC(C)(C)c1cc(NC(=O)CSc2nnc(N)s2)on1
#12 CNCc1nc2scc(-c3ccccc3OC)c2c(=O)[nH]1

assay / compound	7	8	9	10	11	12
NPYLR7 agonist	15	4	0	3	-1	30
NPYLR7 agonist max-min	10	10	0	5	3	28

A second format for part of the listing above:
No.	Structure	NPYLR7 agonist	NPYLR7 agonist max-min
10	CC1(C(=O)NS(=O)(=O)c2ccc(C#N)cc2)CCN1C(=O)C1(c2ccccc2)CC1 (stereo unspecified)	3	5
11	CC(C)(C)c1cc(NC(=O)CSc2nnc(N)s2)on1	-1	3

Later entries:
#13 Cn1cc(CNc2cc(F)ccc2OC(F)F)cn1
#14 CCOc1ccc(OCC(=O)Nn2cnc3c(cnn3C(C)(C)C)c2=O)cc1
#15 Cc1ccc(-c2cc(NC(=O)CN3CCCCC3)on2)cc1
#16 CCCc1c(C(=O)NCCN(C)C)cnn1-c1ccc(C)cc1
#17 COCCn1c(CN2CC(C)CC(C)C2)nc2c1c(=O)n(C)c(=O)n2C (stereo unspecified)
#18 Cc1ccc(-c2nc(CC(=O)OCc3ccccc3)cs2)cc1

assay / compound	13	14	15	16	17	18
NPYLR7 agonist	8	-6	3	34	1	20
NPYLR7 agonist max-min	8	-8	0	48	20	10

#19 CCOC(=O)C(c1cc(OC)ccc1OC)C1C=CC(NC(=O)c2ccc(C(F)(F)F)cc2C(F)(F)F)C1 (stereo unspecified)
#20 Cc1csc(N(C)C(=O)c2ccc(Cn3cccn3)cc2)n1
#21 O=C(NN1C(=O)NC2(CCCCC2)C1=O)c1ccc(Cl)s1
#22 C=CC[C@H]1CC(C)=C[C@H](CC=C)N1Cc1ccc(CO)o1
#23 COc1ccc(CNC(=O)c2ccc3c(=O)n(-c4ccc(C)c(C)c4)c(N4CCOCC4)nc3c2)cc1
#24 Cc1occc1C(=O)NN=Cc1ccccc1C(F)(F)F

assay / compound	19	20	21	22	23	24
NPYLR7 agonist	4	0	11	2	6	-4
NPYLR7 agonist max-min	3	2	17	-5	5	-7

#25 CCOc1ccccc1NC(=O)c1cc2ccccc2oc1=O
#26 Cc1ccc(-n2cnnc2SCC(=O)NC2(C(=O)O)CCCCC2)cc1
#27 COCC(O)CN(C)C(=O)c1ccc(Oc2cccc(Br)c2)nc1 (stereo unspecified)
#28 Cc1cccc(-c2ncc(CNCCCc3c(C)n[nH]c3C)cn2)c1
#29 CCC(C(=O)Nc1ccc(OC)cc1)N1CCCN(Cc2ccc(C)cc2)CC1 (stereo unspecified)
#30 CC1=C(CSCc2ccccc2)CS(=O)(=O)C1

assay / compound	25	26	27	28	29	30
NPYLR7 agonist	-1	8	1	20	5	11
NPYLR7 agonist max-min	6	8	1	12	2	10

#31 CCCCCNC(=O)C(NC(=O)OCc1ccccc1)SC(C)C (stereo unspecified)
#32 Cc1ncn(Cc2nc(-c3cccc(Oc4ccccc4)c3)oc2C)n1
#33 CC(C#N)Sc1nc(N)c2c3c(sc2n1)CCCC3 (stereo unspecified)
#34 Cn1cc(C(=O)Nc2cccc3ccccc23)c2[nH]c(=O)n(-c3ccc(Cl)cc3)c(=O)c21
#35 O=C(CCc1ccccc1)NC1CCN(c2ccccc2C(=O)N2CCOCC2)CC1
#36 CCS(=O)(=O)Nc1ccc2nc(-c3cccc(C(F)(F)F)c3)nn2c1

assay / compound	31	32	33	34	35	36
NPYLR7 agonist	1	11	1	2	18	15
NPYLR7 agonist max-min	-5	2	6	-1	17	7

#37 OCc1c[nH]c(=S)n1Cc1ccccc1
#38 O=C(COc1ccc(Cl)cc1)N1CCN(S(=O)(=O)Cc2ccccc2)CC1
#39 COc1cc2c(cc1CN1CCN(Cc3cccc(C)c3)CC1)OCCCO2
#40 COc1cc2ccccc2cc1C(=O)Nc1ccc(-c2nc3cc(Cl)ccc3o2)cc1
#41 CCOC=c1sc(=C(C#N)C(=O)Nc2ccccc2)n(-c2ccccc2)c1=O
#42 CC(C)CS(=O)(=O)Nc1ccc2c(c1)C(=O)N(C)c1ccccc1O2

assay / compound	37	38	39	40	41	42
NPYLR7 agonist	-1	4	10	-1	9	7
NPYLR7 agonist max-min	-1	-2	6	-4	9	1

#43 CC(=O)Nc1ccc(/C(C)=N\Nc2nc(Nc3ccccc3)nc(N3CCOCC3)n2)cc1
#44 COC(=O)C1CCCCN1Cc1ccc2c(c1)CN(C(=O)c1ocnc1C)CCO2 (stereo unspecified)
#45 O=C(Cn1cnnn1)Nc1cc(Cl)cc(Br)c1OC(F)F
#46 O=[N+]([O-])c1cccc(S(=O)(=O)NCCNS(=O)(=O)c2cccc([N+](=O)[O-])c2)c1
#47 COc1ccc(CNC(=S)N2CCNC(=O)C2)cc1
#48 Cc1ccc(-n2ccnc2-c2ccc(C#CCCO)cc2)c(O)c1

assay / compound	43	44	45	46	47	48
NPYLR7 agonist	-9	1	11	-17	15	-7
NPYLR7 agonist max-min	-16	-1	6	-26	5	-11

#49 Cc1ccc(-c2cc3c(=O)n(CC(=O)Nc4ccc(F)cc4F)ncn3n2)cc1C
#50 CCCNc1ncc(CN2CCN(S(=O)(=O)c3ccccc3)CC2)cn1
#51 CCCC(=O)NCCNc1cc(-n2cccn2)nc(C)n1
#52 CCOc1cccc2cc(-c3csc(Nc4ccc(Cl)cc4Cl)n3)c(=O)oc12
#53 CNc1nnc(SCC2=C(C(=O)O)N3C(=O)C(N)C3SC2)s1 (stereo unspecified)
#54 CC(C)C(CNc1ccc2nnc(C(F)(F)F)n2n1)N1CCOCC1 (stereo unspecified)

assay / compound	49	50	51	52	53	54
NPYLR7 agonist	-12	-15	-6	-2	-5	0
NPYLR7 agonist max-min	-18	-14	-11	-7	-5	-1

#55 CCCOCCN1CCOC(c2ccc(Cl)c(Cl)c2)C1 (stereo unspecified)
#56 Nc1nc(-c2cc3ccccc3o2)nc(N2CCc3ccccc32)n1
#57 N#CCCN(Cc1ccccc1)C(=O)CCC(=O)N1CCc2ccccc2C1
#58 Cc1ccc(NC(=O)Nc2ccc(Nc3cc(OC(C)C)nc(C)n3)cc2)cc1
#59 CCN1CCCC1CNC(=O)CCC1CCN(Cc2ccnc3ccccc23)CC1 (stereo unspecified)
#60 Cn1cccc1-c1cc(C(=O)N/N=C\c2cccc(Br)c2)[nH]n1

assay / compound	55	56	57	58	59	60
NPYLR7 agonist	-2	4	-3	-8	4	3
NPYLR7 agonist max-min	-3	-1	-9	-8	0	-1

#61 O=C1COc2cc(C(=O)Nc3cccc4ncccc34)ccc2N1
#62 CC(=O)N(Cc1cccnc1)c1nc2ccc(Br)cc2s1
#63 CC(=NC1=NCCS1)c1ccc(C)c(C)c1
#64 CN(Cc1ccc(Br)s1)Cn1ncc2c([nH]c3ccccc32)c1=O
#65 O=C(/C=C/c1ccc2ccccc2n1)NC1CCSc2ccccc21 (stereo unspecified)
#66 CC1=C(C(=O)OC(C)C)C(c2ccccc2F)NC(=O)N1C (stereo unspecified)

assay / compound	61	62	63	64	65	66
NPYLR7 agonist	4	-16	1	15	-2	-9
NPYLR7 agonist max-min	3	-9	0	13	-4	-15

#67 CN(C(=O)C(Cl)Cl)c1ccc(OC(=O)c2ccco2)cc1
#68 COc1ccc(OCc2ccc(-c3nc(C#N)c(NCc4ccccc4)o3)o2)cc1
#69 CCc1cnc(C)nc1N(C)CCCc1cnn(C)c1
#70 COc1cccc(C(=O)N2CCC(CO)(Cc3ccccc3)CC2)c1OC
#71 CCc1ccc(NC(=O)c2ccc(CN3CCCC3=O)cc2)cc1
#72 COc1ccc(Cl)cc1C(=O)Nn1cnc2c(cnn2C(C)(C)C)c1=O

assay / compound	67	68	69	70	71	72
NPYLR7 agonist	0	0	-1	16	1	0
NPYLR7 agonist max-min	-6	3	-12	10	-1	-5

Numbers 1 to 18, quoted:
#1 COc1ccc(N(C)c2nc(-c3ccc(Br)cc3)nc3ccccc23)cc1
#2 COc1ccc(NC(=O)Nc2ccn(CC(N)=O)n2)cc1
#3 OCCC1CN(Cc2cn[nH]c2-c2ccc(F)cc2)CCN1CC1CCCCC1 (stereo unspecified)
#4 COc1ccc(Cn2cnc3c4ccccc4n(CC(=O)Nc4cccc(OC)c4)c3c2=O)cc1
#5 O=C(CN1CCN(c2cc(Oc3ccc(F)cc3Cl)ncn2)CC1)N1CCCC1
#6 Cc1ccc(N=c2scc(C)n2CCO)cc1
#7 CCC(C)CN(C)C(=O)NCCc1nccn1C(F)F (stereo unspecified)
#8 O=C(NCC1COc2ccccc2O1)c1ccc(Cl)c(NS(=O)(=O)c2ccc(F)cc2)c1 (stereo unspecified)

assay / compound	1	2	3	4	5	6	7	8
NPYLR7 agonist	-3	4	-5	0	14	-5	15	4
NPYLR7 agonist max-min	6	3	-9	-2	14	-11	10	10

#9 O=C(Cc1ccc(-n2cnnn2)cc1)NC(c1ccccc1)C1CCC1 (stereo unspecified)
#10 CC1(C(=O)NS(=O)(=O)c2ccc(C#N)cc2)CCN1C(=O)C1(c2ccccc2)CC1 (stereo unspecified)
#11 CC(C)(C)c1cc(NC(=O)CSc2nnc(N)s2)on1
#12 CNCc1nc2scc(-c3ccccc3OC)c2c(=O)[nH]1
#13 Cn1cc(CNc2cc(F)ccc2OC(F)F)cn1
#14 CCOc1ccc(OCC(=O)Nn2cnc3c(cnn3C(C)(C)C)c2=O)cc1
#15 Cc1ccc(-c2cc(NC(=O)CN3CCCCC3)on2)cc1
#16 CCCc1c(C(=O)NCCN(C)C)cnn1-c1ccc(C)cc1

assay / compound	9	10	11	12	13	14	15	16
NPYLR7 agonist	0	3	-1	30	8	-6	3	34
NPYLR7 agonist max-min	0	5	3	28	8	-8	0	48

#17 COCCn1c(CN2CC(C)CC(C)C2)nc2c1c(=O)n(C)c(=O)n2C (stereo unspecified)
#18 Cc1ccc(-c2nc(CC(=O)OCc3ccccc3)cs2)cc1

assay / compound	17	18
NPYLR7 agonist	1	20
NPYLR7 agonist max-min	20	10

Next part.
#73 CN1CC2(CCN(C(=O)c3cc4ccccc4s3)C2)OC1=O (stereo unspecified)
#74 Cn1nc(C(=O)Nc2ccc(S(=O)(=O)N3CCC(Cc4ccccc4)CC3)cc2)ccc1=O
#75 COc1ccc(C=C2N=C(c3ccccc3F)OC2=O)cc1OC
#76 Cn1cccc1-c1nnc(C2(c3ccc4c(c3)OCO4)CCOCC2)o1
#77 CC(C)CN1C(=O)N(C)C2(CCN(Cc3cccc4nccnc34)CC2)C1=O
#78 COc1ccc(NC(=O)NCc2nnnn2C2CCCCC2)cc1

assay / compound	73	74	75	76	77	78
NPYLR7 agonist	2	7	3	11	3	1
NPYLR7 agonist max-min	-1	2	10	10	-1	-1

#79 COCCN(Cc1ccc(OS(=O)(=O)c2ccc(NC(C)=O)cc2)cc1)C(=O)NC(C)(C)C
#80 O=C(Nc1cccc2ccccc12)N1CCC2(CCCNC2)C1 (stereo unspecified)
#81 Cc1nc(CN(C)C(=O)CSc2ccc(Cl)cc2)no1
#82 Cc1ccc(C)c(N(Cc2csc(-c3c(C)c(C)nn(C)c3=O)n2)C(C)C)c1
#83 CCOC(=O)c1cc(-c2cccc(NC(=O)COc3ccc(Cl)cc3)c2)n(-c2cccc(F)c2)n1
#84 COc1ccc(C2CC(C(F)(F)F)n3ncc(C(=O)NCCc4ccccc4)c3N2)cc1 (stereo unspecified)

assay / compound	79	80	81	82	83	84
NPYLR7 agonist	-1	0	6	6	1	-7
NPYLR7 agonist max-min	3	-1	5	1	-3	-7

#85 Cc1ccc(C(O)c2ncc(-c3cccc(C(F)(F)F)c3)[nH]2)cc1F (stereo unspecified)
#86 CN(C)CCCO[C@H]1[C@@H](C(O)CO)OC2OC(C)(C)O[C@@H]21 (stereo partly specified)
#87 CCOc1cccc2sc(N(CCCn3ccnc3)C(=O)/C=C/c3cccs3)nc12
#88 CCOC(=O)CN1CCN(c2ccc(C)c(Cl)c2)C(=O)C1C (stereo unspecified)
#89 CC(C)C(CNC(=O)CCn1c(=O)oc2cc(S(=O)(=O)N3CCCC3)ccc21)N1CCOCC1 (stereo unspecified)
#90 CCc1nc2ccc(C(=O)N(C)C(C)C)cn2c1N(CCN(C)C)CC1CC1
#91 CCCC#CC#C/C=C/COC(=O)C=C(C)C
#92 CCOC(=O)C1(CCc2ccccc2)CCCN(C(=O)c2ccnn2C)C1 (stereo unspecified)

assay / compound	85	86	87	88	89	90	91	92
NPYLR7 agonist	1	-9	-10	2	-4	-1	-11	2
NPYLR7 agonist max-min	-3	-16	-20	3	-6	-3	-18	1

High-throughput results from PubChem BioAssay.
